# From PubChem
# NPYLR7 agonist – mosquito NPYLR7 agonism; HEK293T NPYLR7/Galpha15, GCaMP6s calcium fluorescence; activation, % at 10 µM; 0.15% of 270,000 active; in the data active means activation above about 40%;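 further: 0% = vehicle and 100% = reference agonist at the receptor; some compounds past the cut are filed as inactive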
# NPYLR7 agonist max-min – further read-out of NPYLR7 agonist, marked with its call; activation, %; measured here: Max-Min RFU normalised activation; some inactives read as strong as hits;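 span of the calcium signal over five minutes; 0% = vehicle and 100% = native peptide agonist; compound fluorescence can raise it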
# An asterisk follows results filed as active. An excerpt; count on the stated rates, not on these rows.
# Each structure is followed by: NPYLR7 agonist, NPYLR7 agonist max-min
> Cc1ccc(C)c(N2CCN(c3ccc(S(=O)(=O)C4CCCCC4)nn3)CC2)c1
  -4, -10
> COc1ccc2ccc(OC)c(/C=N\n3cnnc3)c2c1
  -7, -18
> CCCNC(=O)C1CCN(C(=O)c2cc(Cl)ccc2Cl)CC1
  7, 0
> CCn1nnc2c(=O)n(CC(=O)N3CC(C)OC(C)C3)cnc21 (stereo not given)
  2, 20
> CN1C[C@H]2CN(C)c3ccccc3[C@@H]2NCCC1=O
  25, 32
> CCOc1ccc(-c2nc3c(c(SCC(N)=O)n2)Cc2cccc(C)c2O3)cc1
  9, 12
> C=C(C)Cn1c(=O)c2c(nc3n(Cc4ccco4)c(C)c(C)n23)n(C)c1=O
  9, 8
> CC(=C(C#N)C#N)c1ccc2c(c1)OCO2
  4, 1
> Cc1cc(CNC(=O)N(C)Cc2ccc(N(C)C)cc2)no1
  0, -1
> COc1cccc(CNc2ncn[nH]2)c1OCc1ccccc1
  -3, -3
> COCCc1ccc(C2=CSC3=NS(=O)(=O)CCN23)cc1
  -3, -4
> Cc1cccc(NC(=O)NCc2ccc(S(=O)(=O)N3CCCCC3)s2)c1
  2, 7
> CSc1ccc(-c2nc(CN3CCN(C)C(CCO)C3)c(C)o2)cc1 (stereo not given)
  4, 2
> CC(C)C(NC(=O)C1CCN(S(=O)(=O)c2ccccc2)CC1)c1ccc2c(c1)OCCO2 (stereo not given)
  1, 16
> O=C(COc1ccc2oc3c(c2c1)CCCC3)Nc1ccccc1
  11, 0
> CCOc1ccc2ccccc2c1CN1C[C@H](O)[C@@H](N2CCN(C)CC2)C1
  13, 11
> CSc1nc(N2CCOCC2)c2cnn(CCNC(=O)c3ccco3)c2n1
  3, 1
> C=CCN(Cc1cccnc1)C(=O)c1ccc(C(F)(F)F)cc1
  2, 1
> Cc1ccccc1-c1n[nH]n2c1nc(=O)c1ccccc12
  -6, -14
> Cc1n[nH]c(C)c1CNc1nc(-c2ccccc2)nc2c1CCNC2
  4, -7
> O=C(Nc1ccc(F)c(F)c1)c1cccn(OCc2ccc(F)cc2)c1=O
  5, 3
> O=C(NCC1CC1)c1cnc(N2CCN(Cc3ccc(Cl)cc3)C2=O)o1
  -4, -4
> O=C1CCC(C(=O)OCC(=O)C23CC4CC(CC(C4)C2)C3)N1 (stereo not given)
  1, -1
> COC(=O)NC1CCN(c2ccccc2C(=O)N2CCN(c3ccc(OC)cc3)CC2)CC1
  -3, -5
> CCc1ccc(S(=O)(=O)N2CCN(c3ncnc4c3nnn4-c3ccc(C)cc3)CC2)s1
  -8, -15
> COCC(C)N=C1NN=C(c2ccc(F)c(F)c2)CS1 (stereo not given)
  -16, -17
> Cc1ccc(OCC(=O)Nc2ccc(F)cc2)c(-c2nc3ccc(C)cc3o2)c1
  25, 27
> O=[N+]([O-])c1cccc(C=C2CCC(C=NN=Cc3ccccc3Cl)=C2N2CCOCC2)c1
  -1, -1
> Cn1cc([N+](=O)[O-])c(C(=O)n2cc(Br)cn2)n1
  13, 8
> CCCn1cnnc1CNC(=O)C1CC(=O)N(Cc2ccc(C)cc2)C1 (stereo not given)
  5, 4
> O=C(O)C1CC(=O)N(Cc2scnc2-c2ccccc2)C1 (stereo not given)
  -6, -6
> CCn1cc(CN2N=C(C)CC2c2ccccc2)c(C)n1 (stereo not given)
  4, -2
> COCCOc1nc(-c2cccs2)n(-c2ccc(NC(=O)Nc3cccc(Cl)c3)cc2)n1
  0, 10
> CCc1ccc(N2CCN(C(=O)c3ccc4c(c3)C(=O)N(c3ccc(C)cc3)C4=O)CC2)cc1
  14, 20
> COc1ccc(-c2ccc(C(=O)N3CCCC(Nc4ccc(OC)c(OC)c4)C3)o2)cc1 (stereo not given)
  4, 0
> O=C(c1n[nH]c2c1CCCC2)N1CCOC2(CNCCOC2)C1 (stereo not given)
  -4, -11
> O=C(Cn1nc2ccccn2c1=O)Nc1cc(Cl)c(Cl)cn1
  5, 0
> COc1cccc(COC2CCCN(C(=O)C3CCCC3)C2)c1 (stereo not given)
  -7, -2
> O=C(Oc1coc(CSc2ncccn2)cc1=O)C1CC(=O)N(c2ccc(Cl)cc2)C1 (stereo not given)
  -14, -9
> CCOC(=O)CC(=O)CSC1=NS(=O)(=O)c2ccccc2N1
  11, 7
> Cc1ccc2oc(-c3cc(NC(=O)c4cc([N+](=O)[O-])ccc4Cl)ccc3Cl)nc2c1
  -19, -22
> CCCN1CCSC1=Nc1cc(C(F)(F)F)ccc1Cl
  7, 5
> CCN1CCN(C(c2ccc(Cl)cc2)C2Sc3nc(C)nn3C2=O)CC1 (stereo not given)
  -3, -4
> CC(C)NC(=O)C1(C)CCN1Cc1cccc(Cl)c1 (stereo not given)
  3, 1
> O=C(CCCN1C(=O)NC2(CCCC2)C1=O)Nc1cccc(-c2cnco2)c1
  -3, -1
> CN(C)CCCNc1nc2cc(-c3ccsc3)sc2c(=O)n1C
  5, 2
> COc1ccc(C(=O)N[C@@H](CCc2ccccc2)C(=O)NCC#N)c(OC)n1
  7, 2
> C/C=C\COC1CCCN(C(=O)c2cccs2)C1 (stereo not given)
  -4, -3
> CC(C)N(CCNC(=O)c1cnn(-c2ccc(C(C)(C)C)cc2)c1N)C(C)C
  1, 3
> Cc1c(C)n2c3c(=O)n(C)c(=O)n(C)c3nc2n1-c1ccc(Br)cc1
  11, 7
> CCCn1c(SCc2nc3cc(Cl)ccc3n2C)n[nH]c1=O
  6, 1
> CC(C)C(=O)N1CCCC(C(=O)NC2CCCCC2C)C1 (stereo not given)
  -15, -13
> CS(=O)(=O)N1CC(=O)N(C2Cc3ccccc3C2)CC(O)C1 (stereo not given)
  4, 3
> CC(=O)c1cc2cc(C(=O)N(C)CCC#N)cnc2[nH]1
  -1, -3
> Cn1c(=NC(=O)C2=NN(C3CCS(=O)(=O)C3)C(=O)CC2)sc2ccccc21 (stereo not given)
  -1, -3
> Cc1cc(C)c(S(=O)(=O)N(C)C)c(C)c1N(C)S(C)(=O)=O
  5, 7
> Cc1nn(C)c(C)c1C(NC(=O)C(C)Oc1ccc(Br)cc1)C(F)(F)F (stereo not given)
  3, 2
> C=CCNC(=O)N1CCC(OC)c2ccccc2N(CC(=O)NC)C(=O)C1 (stereo not given)
  3, 2
> Cc1oc(C)c(-c2ccccc2)c1C(=O)Nc1ccc2c(c1)CCC2
  -7, -9
> O=C(CN1C(=O)C(=O)N(C2CCCC2)C1=O)c1ccc(CC(=O)N2CCOCC2)s1
  -2, -2

# Reformatted as labelled records: three of the compounds above
CN(C)CCCNc1nc2cc(-c3ccsc3)sc2c(=O)n1C
  NPYLR7 agonist: 5; NPYLR7 agonist max-min: 2

COc1ccc(C(=O)N[C@@H](CCc2ccccc2)C(=O)NCC#N)c(OC)n1
  NPYLR7 agonist: 7; NPYLR7 agonist max-min: 2

Cc1nn(C)c(C)c1C(NC(=O)C(C)Oc1ccc(Br)cc1)C(F)(F)F (stereo not given)
  NPYLR7 agonist: 3; NPYLR7 agonist max-min: 2

# Further records:
# Each structure is followed by: NPYLR7 agonist, NPYLR7 agonist max-min
> CCCc1cc(N2CCCC(Nc3ccc4c(c3)OCCO4)C2)nc(C)n1 (stereo not given)
  3, 0
> CC(C)c1ccccc1OCc1nc(CN(C(=O)C2CC2)C(C)C)cs1
  11, 19
> Cc1nc(-c2ccccc2)sc1C(=O)NCCn1nc(-c2ccc(Cl)cc2)ccc1=O
  -3, -3
> Cc1cccc(C(=O)N2CCN(c3ccc(NC(=O)c4ccc(F)cc4)cn3)CC2)c1C
  -3, 8
> O=P1(Nc2ccc(F)c(F)c2F)C=C(c2ccccc2)OC(c2ccccc2)=C1
  -2, 5
> COc1cc(CNCC(c2cccs2)N2CCC(C)CC2)cc2c1OCCO2 (stereo not given)
  -1, -4
> CC1N(O)C(C)(C)C(c2ccco2)=[N+]1[O-] (stereo not given)
  -12, -21
> CC1CCC2(CC1)OCC(C(=O)NCC1CCCO1)N2C(=O)Cc1ccccc1 (stereo not given)
  -3, 2
> CCC(=O)NNC(=O)Cc1nc2sc(C)c(C)c2c(=O)[nH]1
  -4, -4
> O=C(CSc1nnc(-c2ccc(Cl)cc2)n1-c1ccccc1)N/N=C\c1cccs1
  -7, -13
> CCc1nc2ccc(C(=O)NCCOc3ccc(OC)cc3)cn2c1N(C)Cc1cccs1
  5, -5
> O=C(O)CCC(=O)NNC(=O)CCC(=O)O
  -3, -7
> CC(C)(C)C(=O)NC(C(=O)O)C12CC3CC(CC(C3)C1)C2 (stereo not given)
  7, 4
> Cc1nc2n(c(=O)c1CCN1CCC(c3noc4cc(F)ccc34)CC1)CCC[C@H]2O
  -2, -1
> COc1cccc(-c2ccccc2NC(=O)C2CCN(Cc3ccc(C)o3)CC2)c1
  -5, 0

# Nothing new here: an excerpt of the list.
# Each structure is followed by: NPYLR7 agonist, NPYLR7 agonist max-min
> CC(C)(C)C(=O)NC(C(=O)O)C12CC3CC(CC(C3)C1)C2 (stereo not given)
  7, 4
> Cc1nc2n(c(=O)c1CCN1CCC(c3noc4cc(F)ccc34)CC1)CCC[C@H]2O
  -2, -1
> COc1cccc(-c2ccccc2NC(=O)C2CCN(Cc3ccc(C)o3)CC2)c1
  -5, 0

# (continued)
# Each structure is followed by: NPYLR7 agonist, NPYLR7 agonist max-min
> CCOc1ccc(C(=O)NCCc2cc3cc(C)c(C)cc3[nH]c2=O)cc1OCC
  2, 5
> N#CC(NC(=O)/C=C/c1ccncc1)c1cccc(Cl)c1Cl (stereo not given)
  17, 9
> NC(=O)C1CCCN(CCn2ccnc2-c2ccncc2)C1 (stereo not given)
  5, 3
> N#Cc1c(F)cccc1N1CCCC(c2nnc3ccccn23)C1 (stereo not given)
  4, 1
> COc1cc(OC)c(C2=CCN(C(=O)CC3CCCC3)CC2)c(OC)c1
  9, 5
> COc1cccnc1-c1cc(O)cc(CCC2CCCCN2)c1 (stereo not given)
  1, 0
> CS(=O)(=O)c1ccc(CC(=O)N(Cc2ccccn2)c2nc3ccccc3s2)cc1
  1, 0
> COc1ccccc1CN(CCC(C)C)CC(O)COCc1ccccc1 (stereo not given)
  12, 9
> Cc1nnc(NC(=O)c2nc3nccc(C)n3n2)o1
  2, 1
> FC(F)(F)Oc1cccc(-c2nnc3ccc(C#Cc4ccccc4)cn23)c1
  15, 14
> CCOC(=O)Cc1csc(NC(=O)C(C)(C)C)n1
  -11, -13
> CCOC(=O)Cn1c(=O)c2c(nc3n(-c4ccc(F)cc4)c(C)c(C)n23)n(C)c1=O
  15, 6
> CCC(O)CN(Cc1ccccc1)Cc1ccc(F)cc1F (stereo not given)
  -1, 10
> O=C(NCc1cccc(C(F)(F)F)c1)C1COC2(CCCCC2)N1C(=O)c1cc(F)cc(F)c1 (stereo not given)
  19, 25
> COC(=O)c1nnn(C(C)C(=O)Nc2ccc(C)cc2)c1C(=O)OC (stereo not given)
  -8, -14
> Cc1nc2c(c(=O)[nH]1)CCN(C(=O)CC(c1ccccc1)c1ccccc1)C2
  8, 5
> CCC(CO)NC(=O)Nc1c[nH]c2ccccc12 (stereo not given)
  2, -1
> CCOC(=O)c1cnc2cc(C(F)(F)F)ccc2c1Nc1ccc(S(N)(=O)=O)cc1
  11, 7
> CCc1ccc2oc3c(c(=O)c2c1)C(c1ccncc1)N(c1cc(C)on1)C3=O (stereo not given)
  7, 4
> O=C1NC(Cc2ccccc2)C(=O)N(CC(=O)N2CCCCC2c2nccs2)c2ccccc21 (stereo not given)
  -1, 16
> O=C(C=Cc1cccs1)NC1CCCCCC1
  4, 3
> CSc1ccc(COc2coc(CN3CCN(C(=O)c4cc(Cl)cnc4Cl)CC3)cc2=O)cc1
  6, 2
> CCn1c(-c2ccc(C(C)(C)C)cc2)n[nH]c1=S
  0, -1
> COc1ccc(/C=C\C(=O)NCc2ccc3c(c2)cc(C)n3C)cc1OC
  2, 0
> CCOC(=O)C1C(c2ccoc2)n2ncnc2NC1(O)C(F)(F)F (stereo not given)
  -2, -4
> Cc1cc(C)c2c(c1)CC(C)(C)C(=O)N(CCc1ccncc1)C2=O
  -10, -16
> CC(C)[C@@H]1NC(=O)N(c2ccc3c(c2)OC(c2ccncc2)N3)C1=O (stereo not given in full)
  5, -1
> COc1ccc2c(ccc[n+]2CC(=O)c2ccc(C)cc2)c1
  22, -1
> CC1(C)OC(C)(C)/C(=C/c2ccc(Cl)cc2)C1=O
  4, 10
> Cn1ccnc1[C@@H]1C[C@H](NC(=O)c2ccccc2)C[C@H](Cc2ccccc2)O1
  -5, -5

# Complete entries, quoted from the list. Values in the order: NPYLR7 agonist, NPYLR7 agonist max-min
# Cn1ccnc1[C@@H]1C[C@H](NC(=O)c2ccccc2)C[C@H](Cc2ccccc2)O1 is entered as -5, -5
# CCc1ccc2oc3c(c(=O)c2c1)C(c1ccncc1)N(c1cc(C)on1)C3=O (stereo not given) is entered as 7, 4

# (cont.)
# Each structure is followed by: NPYLR7 agonist, NPYLR7 agonist max-min
> Cc1ccccc1N1CCN(C2CCCN(C(=O)c3noc4c3CCCC4)C2)CC1 (stereo not given)
  -6, -7
> CN(C(=O)Cn1ccccc1=O)C1CCCCCC1
  -3, -2
> O=C(Nc1nccs1)C1CCCN(c2ccc(-c3cccs3)nn2)C1 (stereo not given)
  -9, -11
> CCn1c(C)ccc(C(=O)N[C@H]2C[C@H]3C(=O)N(C)CC(=O)N3C2)c1=O
  9, 6
> COc1c(Cl)cc(NC(=O)c2scnc2C)cc1Cl
  -15, -20
> CC(NC(=O)c1cc(COc2cccc(C(F)(F)F)c2)on1)c1nccs1 (stereo not given)
  15, 2
> NC(=O)[C@@H]1CN2CCN(Cc3ccc(N4CCOCC4)cc3)C[C@@H]2[C@H]1c1ccccc1
  9, 16
> COC(=O)c1nc(NS(=O)(=O)c2cccc3c2OCCO3)n[nH]1
  7, 7
> Cc1cc(C(=O)Cn2cnc3sccc3c2=O)c(C)n1CC1CCCO1 (stereo not given)
  0, 5
> Cc1cc(Br)cnc1-n1cnnc1
  -8, -15
> COCCN(Cc1ccc(OS(=O)(=O)c2ccc(NC(C)=O)cc2)cc1)C(=O)c1ccccc1F
  0, 4
> O=C(c1nccs1)c1cccnc1N1C[C@@H]2C3CCC(CC3)[C@@H]2C1
  12, 8
> Nc1ncccc1OCc1nc(CCc2ccccc2)no1
  4, 2
> CN1CCC(C)(C(=O)Nc2cccc(Oc3ccccc3)c2)C1 (stereo not given)
  5, 4
